VACV mCherry inh – qHTS for Stage-Specific Inhibitors of Vaccinia Orthopoxvirus: mCherry Reporter Primary qHTS; actives 0.63% (n = 310,000); Vaccinia virus mCherry reporter infection, fluorescence; about a quarter of the inactives have no number; Potency, µM (top dose mostly 36.5 µM), without a hit: at the highest dose activity change, negative = inhibition, hits mostly inhibitors; active = well fitted inhibition curve with a large enough effect; inconclusive = small, poorly fitted or top-dose-only effect; inactive = no such curve, though single readings can be large or run the other way; tested in A549 cells; further: nearly all actives have a fitted effect of over 35% in size; inactives centre near -10
VACV Venus inh – qHTS for Stage-Specific Inhibitors of Vaccinia Orthopoxvirus: Venus Reporter Primary qHTS | Vaccinia virus Venus reporter expression, fluorescence | actives 0.46% (n = 330,000) | Potency, µM (highest dose often 36.5 µM), inactives show top-dose activity change, negative = inhibition, actives largely listed as inhibitors; active means well fitted inhibition curve with a large enough effect; inconclusive means small, poorly fitted or top-dose-only effect; inactive means no such curve, though single readings can be large or run the other way; tested in A549 cells; further: nearly all actives have a fitted effect of over 30% in size; inactives centre near -10
Active calls of the source: *; i = inactive; ? = inconclusive; . = not tested or not shown; & = joins results of further samples; [ ] = remark or other dose. On the % scale 0 is the no-effect control and ±100 the full control effect; potency means the concentration at half of the fitted maximal effect.

Fields – VACV mCherry inh | VACV Venus inh
Cn1c(SCCN2CCCC2)nnc1C1CCN(S(=O)(=O)c2cccc(F)c2)CC1
  -20% | -3%
CCOc1ccc(-c2c(C)nn3c(C)c(C(=O)Nc4ccccc4C(=O)OC)cnc23)cc1OCC
  -11% | -14%
CCn1nnnc1NCc1ccc(Cl)cc1
  -17% | -21%
COCCCNC(=O)c1c[nH]c2ccc(S(=O)(=O)N3CCc4ccccc43)cc2c1=O
  ? | ?
CCc1cccc(C)c1NC(=O)Cn1nc(C)n2cccc2c1=O
  -3%[7.34 µM] | -2%[7.34 µM]
CCN(CC)c1ccc(NC(=S)NC(=O)C2CCC2)cc1
  -26% | -11%
Cc1ccccc1C(=O)c1cccn1CC(=O)NC1CCCC(C)C1C (stereo not given)
  -15% | -7%
CCOC(=O)c1ccn(-c2nc(-c3cccc(OC)c3)cc(C(F)(F)F)n2)n1
  -4% | 6%
Brc1ccc(Sc2cnc3ccccc3n2)cc1
  . | -10%
NS(=O)(=O)c1ccc(NC(=O)COC(=O)C2CCCCC2)cc1
  -4% | -7%
C=CCN1C=C2C(=O)C(C)(OC(=O)CC)C(=O)C=C2C=C1CCCC (stereo not given)
  -14% | -6%
Cc1cccc(C(=O)Nc2ccc3oc(-c4cccc5c(Br)cccc45)nc3c2)c1
  -13% | -1%
O=C(COc1ccccc1Cl)Nc1nnc(S(=O)(=O)N2CCCCCC2)s1
  i | -19%&-9%
Nc1cccc(Oc2c(F)c(F)c(Oc3cccc(N)c3)c(F)c2F)c1
  -25% | -8%
CC(C)c1ccc(NC(=O)C(c2ccccc2)N2CC(=O)Nc3ccccc32)cc1 (stereo not given)
  10% | -4%
COc1ccc(C2/C=C\CN(C(=O)Oc3ccccc3)CC(=O)N2Cc2ccc(F)cc2)cc1 (stereo not given)
  -2% | -16%
COc1cccc(-c2ccc(SCC(=O)NC3CCCCC3)nn2)c1
  -13% | -8%
CCCCN1C(=O)N(C)C2C1N(C)C(=O)N2CCCC (stereo not given)
  -9% | 0%
O=C(c1ccc(Br)s1)N(Cc1cccnc1)c1nc2ccc(F)cc2s1
  -1% | -13%
CCc1ccc(OCCCN=C(C)c2c(O)n(C)c(=O)n(C)c2=O)cc1
  -19% | -16%
Cc1ccc(S(=O)(=O)Nc2ccc3c(c2)C(=O)N([C@@H](C)CO)C[C@@H](C)[C@@H](CN(C)C(=O)NC2CCCCC2)OCCCC[C@H](C)O3)cc1
  -5% | -11%
COc1ccccc1C(=O)COC(=O)Cc1c[nH]c2ccccc12
  -18% | -7%
CCOc1ccc(CNC(=O)Cn2ccc3cc(S(=O)(=O)N4CCCCCC4)ccc32)cc1
  -14% | -13%
Cc1ccc(CNc2nc(CN3CCCCC3c3cccnc3)nc3ccccc23)o1 (stereo not given)
  0% | -16%
COCCCn1c(SCC(=O)Nc2oc(C)c3c(C)n[nH]c(=O)c23)nc2ccccc2c1=O
  0% | -15%
CCCCN(C(=O)/C=C/c1ccc(OCC(C)C)c(OCC)c1)c1c(N)n(CCC)c(=O)[nH]c1=O
  i | -13%
O=C(COc1cc(Cl)ccc1Cl)Nc1ccc2[nH]c(=O)[nH]c2c1
  -2% | -4%
COc1ccc(CCNC2CC(=O)N(CCc3ccccc3)C2=O)cc1OC (stereo not given)
  -19% | -15%
Cc1cccc(OCC(=O)Nc2cccc(C(=O)Nc3ccccc3C(=O)O)c2)c1
  -13% | -14%
O=c1c2cc(Br)ccc2nc(-c2ccc([N+](=O)[O-])cc2)n1O
  -7% | -14%
Cc1ccc(C)c(-c2csc(NC(=O)c3cnccn3)n2)c1
  i | -17%
CCc1cccc(CC)c1NC(=O)c1cccc(S(=O)(=O)N2CCN(C)CC2)c1
  -1% | -6%
C(=N\Nc1nc2ccccc2s1)/c1ccc2c(c1)OCO2
  -11% | 4%
COc1ccc(CCN=C(N)NS(=O)(=O)c2ccc(C)c(C)c2)cc1
  -1% | -10%
CCNS(=O)(=O)c1ccc(NC(=O)c2cncc(Br)c2)cc1
  -14% | -10%
O=C1c2ccccc2C(=O)N1C1C=CC=CC=C1
  -1% | -4%
O=C(c1cc2ccccc2oc1=O)N(c1ccccc1)C1C=CS(=O)(=O)C1 (stereo not given)
  -20% | -5%
CCCCCCCC(O)CC(CC1CCCCC1)C(=O)NN (stereo not given)
  -1% | -13%
O=S(=O)(c1cccc(Br)c1)N1CCN(c2ccnc3cc(Cl)ccc23)CC1
  -27% | -24%
CCOc1ccc(N2CCc3c(C)nc(SC)nc32)cc1
  -2% | -12%

Given with each value named: part of the list above.
O=C1c2ccccc2C(=O)N1C1C=CC=CC=C1
  VACV mCherry inh: -1% | VACV Venus inh: -4%

O=C(c1cc2ccccc2oc1=O)N(c1ccccc1)C1C=CS(=O)(=O)C1 (stereo not given)
  VACV mCherry inh: -20% | VACV Venus inh: -5%

CCCCCCCC(O)CC(CC1CCCCC1)C(=O)NN (stereo not given)
  VACV mCherry inh: -1% | VACV Venus inh: -13%

O=S(=O)(c1cccc(Br)c1)N1CCN(c2ccnc3cc(Cl)ccc23)CC1
  VACV mCherry inh: -27% | VACV Venus inh: -24%

Going on with the list.
Fields – VACV mCherry inh | VACV Venus inh
c1ccc(CN2CCC(N3CCC(N4CCCCCC4)CC3)CC2)cc1
  -8% | -4%
CC(NCC(=O)Nc1ccccc1C(=O)NC1CC1)c1ccc(Cl)cc1 (stereo not given)
  -14% | -7%
CC(C)c1ccc(NC(=S)N2CCN(Cc3ccccc3)CC2)cc1
  -19% | -16%
Brc1ccc(Br)c2cnccc12
  i | -8%
CN(C)c1ccc(NC(N)=S)cc1
  i | -8%
NC(=O)c1ccc(NC(=O)c2cccc(Oc3ccccc3)c2)cc1
  i | -7%
O=C(NCCN1CCC(n2c(=O)[nH]c3ccccc32)CC1)c1ccccc1C(F)(F)F
  -17% | -11%
CC1(C)N=C(N)N=C(N)N1c1cc(Cl)ccc1Cl
  i | -15%
CC(=O)Nc1nc(CC(C)C)cc(-c2ccccc2)c1C#N
  -12% | 4%
Cn1c(N)c(C(=O)COC(=O)CC(NC(=O)c2ccccc2Cl)c2ccccc2)c(=O)n(C)c1=O (stereo not given)
  -11% | -7%
CCc1ccccc1-n1c(C)nc2cc(C(=O)NCCc3ccc(Cl)cc3)ccc21
  -9% | -10%
O=C(CCCN1C(=O)c2cccc3cccc(c23)C1=O)Nc1nccs1
  i | -12%
CCC(Oc1ccccc1)C(=O)NCc1cccnc1 (stereo not given)
  -6% | -3%
Cc1cccc(N(C(=O)c2cnc3n(c2=O)CCS3)C2CCCCC2)c1
  i | -14%
O=C(O)CC(NC(=S)NCc1ccccc1)C(=O)O (stereo not given)
  -6% | -3%
Cc1cc(OCC(=O)NCc2ccc(S(N)(=O)=O)cc2)c2c3c(c(=O)oc2c1)CCC3
  -10% | -3%
Cc1ccc(C)c(OC(=O)c2ccncc2)c1
  -13% | 3%
COc1ccc(NCc2cccn2-c2nnc(N3CCOCC3)s2)cc1OC
  0% | -4%
Cc1cccc(N2C(=O)CSC23C(=O)N(CC(=O)NCCc2ccccc2)c2ccccc23)c1 (stereo not given)
  -20% | -10%
Cc1ccc(C(=O)c2oc3ccccc3c2NC(=O)COc2ccc(Cl)c(C)c2)cc1
  5% | 5%
C=CCNC(=S)NNC(=O)c1ccc(OCC)cc1
  5% | -11%
COC(=O)c1ccc2nc(-c3cccc(Cl)c3)c(Cc3ccccc3OC)n2c1
  8% | 7%
CCN(CC)S(=O)(=O)c1csc(C(=O)NC2CCCCC2)c1
  -23% | -15%
CC(C)(Nc1ccccc1)C(=O)c1ccccc1
  -4% | 0%
COc1ccc(S(=O)(=O)Nc2ccc(F)cc2F)cc1C(=O)N1CCOCC1
  -4% | -9%
O=S(=O)(c1ccc2nnn(OCc3ccccc3)c2c1)N1CCOCC1
  ? | ?
CCOC(=O)N1CCc2c(sc3c2c(=O)n(Cc2ccccc2)c(=O)n3CC(=O)Nc2ccc(C)cc2C)C1
  -19% | -4%
CCOc1ccc(S(=O)(=O)n2ccnc2)c2ccccc12
  -12% | -7%
COc1ccc(CSc2nncn2N)cc1[N+](=O)[O-]
  -10% | -8%
CCCCc1nn2c(=O)cc(COC(=O)COc3ccc(C)cc3)nc2s1
  -10% | 1%
CN1c2ccsc2C(=O)/C(=C\Nc2cccc(C(F)(F)F)c2)S1(=O)=O
  -15% | -6%
O=C(O)c1c2c(nc3ccc(S(=O)(=O)N4CCC(C(=O)NCc5ccccc5)CC4)cc13)CCCC2
  9% | -6%
Cc1ccc(NC(=O)CSc2nc3ccccc3n2CC(=O)N(C)C2CCCCC2)cc1C
  -23% | -16%
CCCOc1ccc(C2C(C#N)=C(N)Oc3nc[nH]c(=O)c32)cc1OC (stereo not given)
  i | ?
Cc1ccc(C)c(S(=O)(=O)c2nnn3c2nc(Nc2ccc(C)c(C)c2)c2sccc23)c1
  -15% | -20%
CN(C)c1cccc(C(=O)NC2CCCc3ccccc32)c1 (stereo not given)
  -19% | 10%
CC1(C)C=C2C(=NN(c3ccccc3)C(N)=C2C#N)CO1
  -23% | 5%
Cc1cc(C)c(NC(=O)C(C)n2nnc3sc(-c4ccccc4)cc3c2=O)c(C)c1 (stereo not given)
  -5% | -6%
CC(C)NC(=O)c1ccccc1NC(=O)c1nsc2ccccc12
  i | -12%
O=C(NCc1ccco1)C1CCN(Cc2ccc(F)cc2)CC1
  . | -7%
Fc1ccc(-c2ccc3c(c2)C2CC3CCN2Cc2ccc3c(c2)OCO3)cc1 (stereo not given)
  i | -12%
CCOC(=O)c1c(NC(=O)CSc2nc3ccc(OC)cc3[nH]2)sc2c1CC(C)(C)NC2(C)C
  ? | ?
CCc1nnc(NC(=O)CSc2nnc(C)n2CC2CCCO2)s1 (stereo not given)
  -6% | -4%
CC(=O)c1ccc(NC(=O)c2cc3sccc3n2Cc2ccc(Cl)cc2)cc1
  -11% | -12%
O=C(CCC(=O)Nc1nnc(C2CCCCC2)s1)NCc1ccc(F)cc1
  -25% | -17%
Cc1cc2oc(C(=O)Nc3c(C(=O)Nc4ccccc4)oc4ccccc34)cc(=O)c2cc1C
  -8% | 8%
COc1cccc(C(=O)c2c[nH]c(C(=O)NCc3ccco3)c2)c1
  . | -18%
Cc1ccc(Oc2ccc(Cl)cc2NC(=O)c2cnccn2)cc1
  . | -13%
O=C(Nc1ccccc1)c1cc(S(=O)(=O)NCc2ccncc2)ccc1Cl
  -3% | -18%
O=C(C1CCCCC1)N(Cc1cccnc1)c1nc2ccc(F)cc2s1
  i | -16%
O=S(=O)(NCC1CCCO1)c1cc(Cl)ccc1Cl (stereo not given)
  -1% | -17%
FC(F)(F)COc1nc(N2CCOCC2)nc(N(c2ccccc2)c2ccccc2)n1
  ? | ?
COc1cc(-c2nnc(SCC(=O)Nc3cc(C)on3)n2C)cc(OC)c1O
  -9% | -11%
CCOC(=O)C(C)Sc1ncc(-c2ccccc2)cn1 (stereo not given)
  i | -13%
O=C(C1=NN[C@@H]2C(=O)N(c3cccc(F)c3)C(=O)[C@H]12)C(c1ccccc1)c1ccccc1
  -9% | -3%
O=C(Nc1cc(Cl)ccc1-n1cncn1)c1ccc([N+](=O)[O-])s1
  -9% | -23%
COc1ccccc1C(=O)N/C(=N/c1nc(C)cc(C)n1)Nc1ccccc1
  -14% | -9%
Cc1cc(NC(=O)CCc2ccccc2)c([N+](=O)[O-])cc1C
  -25% | -26%
CCc1ccc(Nc2sc(C(=O)c3ccccc3)c(N)c2S(C)(=O)=O)cc1
  -7% | -7%
Cc1ccc(COCC(CC(C)C)N2CCN(C(=O)c3cccc(C(F)(F)F)c3)CCC2=O)cc1 (stereo not given)
  -1% | -21%

(cont.)
Fields – VACV mCherry inh | VACV Venus inh
Cn1cnc2cc(NS(=O)(=O)c3ccc(Br)cc3)ccc21
  . | 12%
O=C(CSc1nc(-c2ccccc2)cc(=O)[nH]1)Nc1ccccn1
  . | -4%
Cc1ccc(SCc2cn3cccnc3n2)cc1
  . | 2%
Cc1nc2cc(C(F)(F)F)ccc2n1C1CCN(Cc2nnnn2Cc2cccs2)CC1
  -13% | ?
CCCCN(CC)c1c([N+](=O)[O-])cc(C(F)(F)F)cc1[N+](=O)[O-]
  i | 0%
CC(C)CNS(=O)(=O)c1cc(C(=O)OCC(=O)c2ccc3c(c2)OCCO3)c(Cl)cc1Cl
  -6% | -2%
O=C(NNC(=S)Nc1ccccc1C(F)(F)F)c1ccc(Br)o1
  -20% | -17%
CCCN(CCC)S(=O)(=O)c1ccc(C(=O)NCc2ccc3c(c2)OCO3)cc1
  -8% | -19%
COc1ccccc1CCN1CCCC(CN(C)C(=O)c2ccc3nc[nH]c3c2)C1 (stereo not given)
  i | -5%
CCOC(=O)c1cc(NC(=O)c2ccc(OC)cc2)c(=O)n2c1oc1ccc(Cl)cc12
  3% | 13%
Cc1cccc2cc(CN(C(=O)c3cccs3)c3ccccc3)c(=O)[nH]c12
  -10% | -6%
Cc1ccccc1-c1ccc(CN2CCc3nnc(C(NS(C)(=O)=O)C(C)C)n3CC2)cc1 (stereo not given)
  -4% | -18%

Screens deposited in PubChem by National Center for Advancing Translational Sciences (NCATS).
